D2 agonist: Beta-Arrestin HTS for Positive Allosteric Modulators of the Human D2 Dopamine Receptor: Agonists | D(2) dopamine receptor (Homo sapiens), P14416 | activation, % (no concentration beside the values) | AID 624465, 2012 | hit rate 0.084% among 360,000 | DiscoveRx PathHunter D2 beta-arrestin, luminescence, 90 min; 100% = 57 uM dopamine signal; in the data active = activation above about 40%; inconclusive = about 15% to 40%; inactive = below about 15%; also: compound concentration not given in the record; the text of the record calls up to 30% inactive
Target sequence (P14416 whole entry, looked up): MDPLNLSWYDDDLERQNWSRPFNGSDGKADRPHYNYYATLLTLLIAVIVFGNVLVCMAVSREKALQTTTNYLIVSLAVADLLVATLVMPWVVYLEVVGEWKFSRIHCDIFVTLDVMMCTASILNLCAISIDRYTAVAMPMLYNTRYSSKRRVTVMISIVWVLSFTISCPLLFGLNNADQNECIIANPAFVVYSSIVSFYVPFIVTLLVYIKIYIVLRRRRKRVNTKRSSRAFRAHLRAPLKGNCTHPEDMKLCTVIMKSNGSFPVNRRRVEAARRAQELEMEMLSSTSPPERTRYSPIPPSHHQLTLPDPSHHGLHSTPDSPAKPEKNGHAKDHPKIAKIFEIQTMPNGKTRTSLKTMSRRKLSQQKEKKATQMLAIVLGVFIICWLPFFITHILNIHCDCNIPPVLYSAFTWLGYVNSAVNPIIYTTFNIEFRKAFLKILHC
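Agonist mode: compounds alone added to overnight-plated D2 PathHunter cells for 90 min at 37 C, with 57 uM final dopamine (EC100) defining full response. Beta-arrestin recruitment detected by chemiluminescent reagent, read after 1 h at ambient temperature.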
TRPML1 agonist: qHTS for Agonists of the Human Mucolipin Transient Receptor Potential 1 (TRPML1). activation, % (concentration not given with the values). AID 624414, 2012. TRPML1-expressing cells, Ca2+ dye fluorescence, FDSS; host cell line not named in the record; reference of the full effect not given here. hit rate 0.12% among 410,000; in the data active = activation above about 50%; inconclusive = about 30% to 50%; inactive = below about 30%; also: 0% is about no effect; the text of the record puts the active cut at 80%
Target sequence (Q9GZU1 whole entry, looked up): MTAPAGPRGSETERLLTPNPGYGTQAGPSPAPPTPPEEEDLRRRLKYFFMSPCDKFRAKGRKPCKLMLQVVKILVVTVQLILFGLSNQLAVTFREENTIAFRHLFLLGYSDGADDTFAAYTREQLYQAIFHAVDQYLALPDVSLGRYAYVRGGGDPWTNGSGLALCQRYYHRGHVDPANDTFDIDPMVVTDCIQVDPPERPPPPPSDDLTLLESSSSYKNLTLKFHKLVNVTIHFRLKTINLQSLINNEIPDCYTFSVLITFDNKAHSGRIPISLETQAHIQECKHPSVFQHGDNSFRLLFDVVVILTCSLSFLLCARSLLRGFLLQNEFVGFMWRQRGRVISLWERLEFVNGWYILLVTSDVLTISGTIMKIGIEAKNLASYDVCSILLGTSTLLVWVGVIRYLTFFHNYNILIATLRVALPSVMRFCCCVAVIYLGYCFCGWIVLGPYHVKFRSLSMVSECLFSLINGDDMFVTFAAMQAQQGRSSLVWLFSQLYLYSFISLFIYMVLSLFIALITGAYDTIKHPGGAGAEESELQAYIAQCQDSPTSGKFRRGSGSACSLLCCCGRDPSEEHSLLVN
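Agonist activity was taken from a 110 s kinetic Ca2+ dye read on the FDSS after pinning compounds onto TRPML1-DL cells. The cells were seeded at 1,500/well with Tet inducer, incubated about 16 h, then dye-loaded at room temperature.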
D2 PAM: Beta-Arrestin HTS for Positive Allosteric Modulators of the Human D2 Dopamine Receptor: Potentiators | D(2) dopamine receptor (Homo sapiens), P14416 | DiscoveRx D2 beta-arrestin cells, luminescence, 90 min; 100% = 57 uM dopamine signal | potentiation, % (test concentration not listed) | hit rate 0.23% among 360,000; active = potentiation of 50% or more; inconclusive = 30% to 50%; inactive = 30% or less;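 also: compound concentration not given in the record; tested on top of an EC20 dose of dopamine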
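D2 cells co-treated with compound plus 50 nM dopamine (EC20) for 90 min at 37 deg C to detect potentiation. Beta-arrestin recruitment was read as enzyme-fragment luminescence after 1 h at ambient temperature. Full response was set by 57 uM dopamine.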
Six1-Eya2 inh: qHTS Assay for Inhibitors of the Six1/Eya2 Interaction; Homeobox protein SIX1 (Homo sapiens) + Protein phosphatase EYA2 (Homo sapiens), …; AlphaScreen GST-Six1/His-Eya2 binding, biochemical; active compounds read low; control for the full effect not named in the record; activity change, % (no concentration beside the values); hit rate 0.56% among 360,000; AID 651725, 2012; in the data active = activity change below about -65%; inconclusive = about -30% to -65%; inactive = above about -30%; also: % is scaled to controls: 0 for no effect and ±100 for the full control effect
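GST-Six1 + His-Eya2 (5X stock: 250/500 nM); Tris pH 8.0, 300 mM NaCl, 0.05% BSA, 0.02% Tween 20; GSH donor/Ni acceptor beads; 1 h 37 °C dark; AlphaScreen readout.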
TRPML1 inh: qHTS for Inhibitors of the Human Mucolipin Transient Receptor Potential 1 (TRPML1); Mucolipin-1 (Homo sapiens), Q9GZU1; TRPML1-inducible cells, Ca2+ dye fluorescence, FDSS; active compounds read low; inhibition of EC80 agonist-evoked calcium signal; activity change, negative = inhibition, % (no concentration beside the values); hit rate 0.02% among 390,000; in the data active means activity change below about -50%; inconclusive means about -30% to -50%; inactive means above about -30%;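 also: stimulus is agonist 54-4 at its EC80 concentration; % is scaled to controls: 0 for no effect and ±100 for the full control effect; compound concentration not given in the record; the text of the record puts the active cut at -80%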
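Tet-induced TRPML1-DL cells loaded with Ca8 no-wash calcium dye were read kinetically on FDSS. Compound addition was followed by EC80 agonist 54-4 (4 uM final); inhibition was read over 110 s.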
PINK1 modulator: A Quantitative High throughput Screen to Identify Chemical Modulators of PINK1 Expression; PINK1 immunofluorescence, high-content cytometry, 24 h; Potency, µM (highest dose often 76.6 µM), without a hit: at the highest dose activation (PINK1 increase), actives largely listed as activators; hit rate 0.2% among 410,000; AID 624263, 2012; active = well fitted activation curve with a large enough effect; inconclusive = small, poorly fitted or top-dose-only effect; inactive = flat fitted curve, though single readings scatter; cell line not stated here;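 also: potency is read from the fitted curve at half-maximal effect; % of control where 0% means no effect; nearly all actives have a fitted effect of over 65% in size; a mitochondrial uncoupler was the plate control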
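PINK1 protein level read as immunofluorescence by microplate cytometer in a fixed, stained stable cell line after 24 h exposure to five compound concentrations, with CCCP as control.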
Numbers without * were called inactive; u = inconclusive; x = no result given; [ ] = dose if it differs, or a comment.

cpd	Structure	Six1-Eya2 inh	D2 agonist	TRPML1 inh	PINK1 modulator	D2 PAM	TRPML1 agonist
1	N#Cc1cnc(=S)n(-c2cc(C(F)(F)F)cc(C(F)(F)F)c2)c1N	1	-4.0	2	u	2	0.7
2	Oc1ccc2ccccc2c1/C=N/Nc1nnc(-c2ncc[nH]2)c2ccccc12	-67*	-4.2	-3	7.0%	8	1.9
3	COc1ccc(NS(=O)(=O)c2cc3c(cc2C)N(C)CCO3)cc1	-1	2.0	-15	7.5%	-3	-0.5
4	CCn1c(=O)cc(SCC(=O)N2CCN(c3ccccc3OC)CC2)c2ccccc21	-8	-0.5	-11	-0.3%[38.3 µM]	-11	1.5
5	CCOC(=O)c1cc(C#N)c(=S)[nH]c1C	-1	-4.4	-10	-0.4%	-5	1.1
6	CCOc1cc(NC(=O)c2ccccc2[N+](=O)[O-])c(OCC)cc1NC(=O)CC(C)C	4	0.1	15	4.6%[38.3 µM]	1	0.9
7	CC(C)c1ccc2oc(-c3ccc(Cl)c(NC(=O)Cc4ccccc4)c3)nc2c1	x	x	17	1.1%	x	2.5
8	COc1ccc(-c2cnnc(N/N=C/c3ccc(OC)c(OC)c3)n2)cc1	-10	6.3	-7	0.8%	-1	0.3
9	Cc1cc(SCC(=O)N2CCN(C(=O)c3ccco3)CC2)c(C)cc1Br	0	2.2	-22	1.0%	0	1.8
10	CN(C)[C@@H]1CCC[C@@H]1OC(=O)C(c1ccccc1)c1ccccc1	2	-2.2	11	-0.5%	-18	2.3
11	COc1ccc(CCC(=O)NCc2ccc3c(c2)CCN3C(=O)c2ccc(Cl)cc2)cc1	x	x	-26	0.9%	x	0.2
12	Cc1cccc(CSc2cccc3cccnc23)c1	-90*	-2.9	-6	-0.3%	0	0.9
13	CCNc1ccc(C(=O)OCC(=O)c2cc(C)n(Cc3ccc4c(c3)OCO4)c2C)cc1[N+](=O)[O-]	-16	-2.5	-5	2.8%	-17	0.8
14	CC(=O)NCCNc1nc2cc(-c3ccccc3C)sc2c(=O)n1C	-8	-2.3	x	3.3%	-1	-0.6
15	O=C(OCC(=O)N1CCCCCC1)c1cc(S(=O)(=O)N2CCOCC2)ccc1F	1	1.4	32	2.4%	-1	0.0
16	CNC(=O)c1c(NC(=O)/C=C/c2ccccc2)sc2c1CCC2	x	x	49	-3.4%	x	2.2
17	COc1ccc([C@H]2CC(=O)C=C(c3ccc(C)c4ccccc34)C2)cc1	-1	-3.0	19	5.3%	-7	2.3
18	NC(=O)C1CCN(c2ccc(S(=O)(=O)N3CCCCC3)cn2)CC1	4	-1.0	14	-0.9%	-2	0.9
19	CCOC(=O)C(NC(=O)NCc1ccccc1)(OCC)C(F)(F)F (stereo unspecified)	4	0.2	10	6.2%	-9	-0.4
20	Cc1nn(-c2ccccc2)c2c1C(c1cccnc1)N1C=C(S(=O)(=O)N3CCCCC3)C=CC1=N2 (stereo unspecified)	-11	1.5	-7	1.1%	-9	-0.9
21	COc1ccc(NC(=O)COC(=O)CCCOc2ccc(Cl)cc2Cl)cc1	-14	1.4	14	-0.2%	-9	1.7
22	COc1cccc(CNC(=O)Nc2cccs2)c1	2	-5.5	12	-2.3%	-13	-1.1
23	N#Cc1ccc(/C=C/C(=O)c2ccccc2)cc1	-2	0.7	-5	-0.9%	-24	-0.3
24	COc1cc(N)c(C(=O)c2nccc3cc(OC)c(OC)cc23)cc1OC	-8	0.5	3	-0.5%	-3	0.3
25	CC(C)Nc1nc(Cl)nc(NCCOc2ccccc2)n1	-8	4.1	10	-1.1%	-1	3.4
26	CCCCn1c(N)c(N(CCC(C)C)C(=O)COC(=O)c2ccc(CC)cc2)c(=O)[nH]c1=O	12	-2.5	1	-1.6%	5	2.8
27	C=CCN1C(=O)C(CC(=O)O)S/C1=N/N=C/c1ccc(N(CC)CC)cc1 (stereo unspecified)	-3	-6.6	9	1.9%	-1	0.4
28	Cc1cc(-n2c(C)cc(C(=O)COc3cc(F)ccc3[N+](=O)[O-])c2C)no1	-22	-0.1	-8	4.7%	6	-1.0
29	CCC(C(=O)NCc1ccco1)N(Cc1cccs1)C(=O)CNS(=O)(=O)c1ccccc1 (stereo unspecified)	0	-2.6	12	x	-13	0.0
30	COc1ccc(OC(C)c2nnc(N)s2)cc1 (stereo unspecified)	1	-3.1	23	1.0%	-6	0.5
31	Cc1ccc2nc(Cl)c3cc(C(=O)NC4CCCCC4)sc3c2c1	x	x	16	1.9%	x	0.7
32	COc1ccc(-n2cnnc2SCCC#N)cc1	13	-1.0	5	-2.5%	5	-0.1
33	COc1ccc(N2CCN(C(=O)CSc3nc(-c4ccc(C(C)C)cc4)no3)CC2)cc1	x	x	-7	-0.3%	x	0.2
34	O=C(NCc1ccccc1Cl)C1CCN(S(=O)(=O)c2ccc(F)cc2)CC1	0	1.8	-14	-2.4%	5	-0.4
35	Cc1ccc(C(=O)Nc2c3c(nn2-c2ccccc2)CS(=O)(=O)C3)cc1C	1	-5.7	12	6.7%	-16	1.0
36	Cc1cc(C)c(S(=O)(=O)c2ccccc2)c(N2CCOCC2)n1	0	-4.4	-4	0.6%	10	0.5
37	Clc1ccc(-c2nnc(CCc3ccccc3)o2)c(Cl)c1	74	-3.2	-3	1.5%[38.3 µM]	-6	0.5
38	CNC(=O)c1ccsc1NC(=O)CCS(=O)(=O)c1ccc(Cl)cc1	10	2.4	4	2.7%	-20	-0.4
39	COC(=O)c1ccc(NC(=O)CN2C(=O)CC(c3ccccc3)Sc3ccccc32)cc1 (stereo unspecified)	x	x	15	u	x	5.4
40	CCN(CC)S(=O)(=O)c1nnc(NC(=O)c2ccc(C(C)C)cc2)s1	x	x	23	2.8%	x	-0.4
41	COc1cccc(/C=N/Nc2ccc(S(=O)(=O)Nc3ccccc3C(=O)O)cc2[N+](=O)[O-])c1O	u	4.3	1	0.3%	16	0.9
42	COCCN(C)C(=O)CCc1nnc(Cc2ccc(-c3ccccc3)cc2)o1	-3	-6.9	11	3.4%	-1	0.6
43	Cc1cc(C)c2c3c(sc2n1)C(=O)N(c1ccccc1)CC(=O)N3	12	-0.3	-8	3.1%	-7	-0.9
44	CN1C(=S)NC(C)(C)CC1(C)c1ccc(O)cc1O (stereo unspecified)	-5	3.8	-19	0.5%	-21	1.1
45	O=C(CSc1ccc(F)cc1)Nc1ccc(N2CCOCC2)c(Cl)c1	10	-1.6	-15	-1.9%	2	2.2
46	CCCc1cc(=O)[nH]c(SCC(=O)Nc2nc3ccc(OCC)cc3s2)n1	-4	5.9	9	1.8%	-11	2.8
47	CCc1ccc(NC(=O)c2ccc3c(O)c(S(=O)(=O)c4ccccc4)c(=O)[nH]c3c2)cc1	x	x	-8	0.0%	x	0.0
48	O=C(Cn1cnc2c(cnn2-c2ccc(F)cc2)c1=O)NCC1CCCO1 (stereo unspecified)	10	-0.2	0	-0.5%	-2	-0.4
49	O=C(Cc1cccc2ccccc12)NCCc1ccccc1	10	-0.5	4	-0.9%	-1	0.8
50	O=C(CCCc1ccccc1)N1CCc2ccccc21	19	-0.3	4	x	1	1.5
51	CC(C)(C)c1ccc(OCC(=O)Nc2ccc(S(=O)(=O)Nc3ncccn3)cc2)cc1	x	x	-4	-0.6%	x	-1.2
52	CCn1nnc(NC(=O)C(C)Oc2ccc(Cl)cc2Cl)n1 (stereo unspecified)	2	-2.6	16	-1.0%[38.3 µM]	-7	1.6
53	C=CCOc1cccc(CNc2cccc(C(=O)O)c2)c1	-2	-2.7	0	0.4%	-8	0.8
54	COC(=O)c1c(NC(=O)c2cnccn2)sc2c1CCC2	12	3.1	-4	0.8%	11	0.1
55	COc1ccc(C(=O)Nc2ccc(NC(=O)c3ccco3)cc2)cc1	-7	1.6	-1	1.6%	-6	-0.5
56	COc1ccc(NC(=O)CSc2nc3nc(C)cc(C)c3c(=O)[nH]2)cc1OC	-24	1.9	-8	1.5%	-18	0.0
57	O=C1CCC(=O)N1c1ccc(-c2nc3ccccc3s2)cc1	-10	8.0	-14	3.8%	-4	-0.4
58	Cn1c(Cc2ccccc2)nnc1SCc1cc(=O)n2ccsc2n1	-16	-0.4	-12	-1.0%	-4	-0.8
59	COc1ccc(C(=O)N2CCc3cc(OC)c(OC)cc3C2COc2ccc3c(C)cc(=O)oc3c2)c(OC)c1 (stereo unspecified)	x	x	-8	0.5%	x	-1.0
60	O=C(O)c1nc(NCc2ccccc2)ncc1Cl	1	-2.3	x	1.1%	-3	x

Later entries
cpd	Structure	Six1-Eya2 inh	D2 agonist	TRPML1 inh	PINK1 modulator	D2 PAM	TRPML1 agonist
61	CN(C(=O)CC(=O)Nc1ccc2nc3n(c(=O)c2c1)CCCCC3)c1ccccc1F	x	x	-15	-0.9%	x	0.5
62	c1ccc2cc3c(NCCN4CCOCC4)ccnc3cc2c1	-19	15	-12	-1.7%	2	-0.4
63	C=CCNC(=O)N[C@@H](CCSC)C(=O)OC	11	-0.3	-14	x	-5	0.1
64	COc1ccc(CNc2ccccn2)c(O)c1	-12	-0.1	-1	-1.5%	-5	-1.3
65	COC(=O)c1ccccc1S(=O)(=O)N1CCC(C(=O)Nc2ccc(N3CCOCC3)cc2)CC1	1	1.5	2	1.0%	-30	1.2
66	C=CCNC(=O)c1ccc(Sc2ccc(C)cc2)c([N+](=O)[O-])c1	3	1.0	-11	9.5%	-19	3.5
67	CCc1nc2ccccc2n2c(-c3ccc(C)cc3)c3c(=O)n(C)c(=O)n(C)c3c12	x	x	-2	0.1%	x	-0.2
68	O=C(NC1CCCCC1)c1ccc(CSc2nc3cccnc3n2Cc2ccccc2F)cc1	x	x	-6	1.1%	x	1.1
